Source: PubChem
PABP FP inh – PABP-poly(A) binding inhibition; P11940; PABP-poly(A) RNA binding, fluorescence polarization; inhibition, % at 35 µM; 1% of 290,000 active;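 active = 50% or more with normal probe brightness, or confirmed in later tests; about a fifth of its hits are not listed in these tables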;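 note: calls also rest on retests at 20 µM and on dose response follow-up; controls were probe without protein and protein plus probe with vehicle; some compounds called inactive have numbers as strong as hits; many hits fall short of the cut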
Target sequence (P11940 whole entry, looked up): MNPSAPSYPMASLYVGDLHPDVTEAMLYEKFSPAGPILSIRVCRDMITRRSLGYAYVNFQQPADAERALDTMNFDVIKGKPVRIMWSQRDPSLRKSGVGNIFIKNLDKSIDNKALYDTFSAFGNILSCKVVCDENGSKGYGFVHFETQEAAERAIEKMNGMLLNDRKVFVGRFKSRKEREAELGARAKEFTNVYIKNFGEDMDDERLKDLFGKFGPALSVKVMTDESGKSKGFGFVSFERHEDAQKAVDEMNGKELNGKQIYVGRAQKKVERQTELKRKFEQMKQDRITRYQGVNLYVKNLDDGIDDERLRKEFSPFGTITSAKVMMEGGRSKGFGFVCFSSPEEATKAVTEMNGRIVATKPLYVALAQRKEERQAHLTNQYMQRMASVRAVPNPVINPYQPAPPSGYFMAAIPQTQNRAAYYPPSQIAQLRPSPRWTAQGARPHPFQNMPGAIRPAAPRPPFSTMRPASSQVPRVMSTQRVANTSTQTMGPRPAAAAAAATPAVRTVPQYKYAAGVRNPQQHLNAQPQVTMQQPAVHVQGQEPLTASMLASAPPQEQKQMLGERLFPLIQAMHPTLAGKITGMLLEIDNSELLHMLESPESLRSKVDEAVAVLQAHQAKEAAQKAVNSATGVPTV
MT1-MMP act inh – inhibitors of human MT1-MMP activation. P50281. HT1080 RFP-PRO-GFP cells, GFP/RFP ratio fluorescence, overnight; percent of plate control window, DMSO zero. GFP/RFP ratio change, % at 20 µM. 0.061% of 360,000 active;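 active = GFP/RFP ratio change of at least 30% with cell ATP level not reduced by more than half and red fluorescence within 50% of control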; note: strong numbers were not always called active
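Material: RFP-PRO-GFP reporter HT1080 cells. Dosing: single-point 20 µM compound, 1% DMSO. Controls: DMSO and RFP-L50D-GFP cell wells. Timing: cells overnight before dosing, compound overnight, 37 °C, 5% CO2. Measure: GFP/RFP fluorescence ratio.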
eIF4H inh – inhibitors of RNA binding by human eIF4H; Q15056; eIF4H fluorescence polarization binding assay; inhibition, % at 35 µM; 0.94% of 290,000 active;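 active = 50% or more with normal probe brightness, or confirmed in later tests; about a fifth of its hits are not listed in these tables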;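 note: calls also rest on retests at 20 µM and on dose response follow-up; 0% = protein and probe with vehicle and 100% = probe without protein; strong numbers were not always called active; many hits fall short of the cut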
Rce1 inhib – blocks yeast Ras-converting enzyme; Q03530; yeast membranes, quenched prenylated peptide cleavage fluorescence; calls only; 0.27% of 290,000 active;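 active = fall in fluorescence gain of 50% or more versus controls, with final raw signal at or below 3038400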;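 note: plate controls were neutral control wells for no effect and wells lacking membranes for full effect; tested at 10 µM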
Target sequence (Q03530 whole entry, looked up): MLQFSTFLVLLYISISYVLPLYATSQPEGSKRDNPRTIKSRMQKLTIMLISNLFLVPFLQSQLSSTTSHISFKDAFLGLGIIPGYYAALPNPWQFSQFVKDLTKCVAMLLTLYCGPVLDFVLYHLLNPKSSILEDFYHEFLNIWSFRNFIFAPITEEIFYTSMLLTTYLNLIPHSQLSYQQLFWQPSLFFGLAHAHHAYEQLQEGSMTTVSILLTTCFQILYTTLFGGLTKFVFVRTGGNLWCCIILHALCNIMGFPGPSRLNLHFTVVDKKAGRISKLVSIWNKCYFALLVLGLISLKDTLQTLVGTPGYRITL
Yeast UUG start – yeast start codon fidelity modulation; activity score, % at 18.7 µM; 0.13% of 350,000 active; S. cerevisiae UUG-firefly luciferase reporter, luminescence/redox ratio;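 active = replicate mean at a twofold rise or more, about +100% in these data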;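 note: firefly luciferase made from a UUG start codon reports start codon fidelity; reporter light over untreated wells divided by growth signal over untreated wells; some hits fall short of that in this replicate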
HIV Env fusion – blocks HIV Env-driven cell-cell fusion. HeLa-JRFL Env/CEM21 cell fusion, luciferase. 1.1% of 360,000 active. AID 651610. inhibition, % at 12.3 µM;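 active = mean replicate inhibition score of at least 50 and every replicate individually at or above 50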;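 note: 0% = plate neutral controls and 100% = maraviroc near 300 nM; one replicate is shown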
CSC inhib – cancer stem cell inhibition | cancer stem cell-like cells viability, luminescence | inhibition, % at 7.5 µM | 1.1% of 300,000 active | AID 2717;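 active = mean at 75% or more and at least half the replicates too; tested in HMLE shEcad cells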;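 note: 0% = median of negative and 100% = median of positive control wells; the first replicate is given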
eIF4H inh retest – further read-out of eIF4H inh, marked with its call; inhibition, %; compound at 20 µM; confirmation average;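 mean of two retest wells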
PABP FP inh retest – also measured in PABP FP inh; calls as there; inhibition, %; compound at 20 µM; confirmation repeats;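 mean of two retest wells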
MT1-MMP act inh RFP – further read-out of MT1-MMP act inh, marked with its call; RFP signal change, %; measured here: RFP expression control read;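 0 = vehicle wells; hits needed this value within 50% of zero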
* = called active by the depositor; i = inactive; · = not tested or not shown; & = joins results of further samples.

Start of the data: the first seven compounds, to show the layout:
SMILES | PABP FP inh | MT1-MMP act inh | MT1-MMP act inh RFP | eIF4H inh | Rce1 inhib | Yeast UUG start | HIV Env fusion | CSC inhib | others
OCC(O)/C=N/Nc1nc(N2CCCCC2)nc(N2CCCCC2)n1 (stereo not given) | 3 | -2 | -3 | 6 | i | · | -22 | -8
O=C(NCc1ccccc1Cl)C1CCN(S(=O)(=O)c2ccc(-n3cnnn3)cc2)CC1 | 12 | 5 | 9 | -3 | i | -7 | -5 | ·
CCCOc1ccc(N2C(=O)CC(N3CCN(c4ccccc4OC)CC3)C2=O)cc1 (stereo not given) | 4 | -3 | -1 | -3 | i | 13 | -5 | 6
O=c1c2sccc2n(Cc2cc(=O)n3ccccc3n2)c(=O)n1-c1ccccc1 | -2 | -4 | 0 | -7 | i | · | 12 | -21
Cc1ccc(NC(=O)c2c(-c3c(F)cccc3Cl)noc2C)cc1F | -8 | 0 | -12 | -9 | i | 14 | -7 | 5
COc1ccccc1N1C(=O)C2CCC(c3ccccc3)CC2C1=O (stereo not given) | -9 | 5 | 3 | -4 | i | 4 | · | -6
CC[C@]12c3[nH]c4ccccc4c3CCN1C(=O)C(CC(=O)NCC13CC4CC(CC(C4)C1)C3)C[C@@H]2C(=O)N1CCN(C(=O)c2ccco2)CC1 (stereo not given in full) | · | -5 | -11 | · | · | 0 | · | 5

Results, previewed entries included:
SMILES | PABP FP inh | MT1-MMP act inh | MT1-MMP act inh RFP | eIF4H inh | Rce1 inhib | Yeast UUG start | HIV Env fusion | CSC inhib | others
OCC(O)/C=N/Nc1nc(N2CCCCC2)nc(N2CCCCC2)n1 (stereo not given) | 3 | -2 | -3 | 6 | i | · | -22 | -8
O=C(NCc1ccccc1Cl)C1CCN(S(=O)(=O)c2ccc(-n3cnnn3)cc2)CC1 | 12 | 5 | 9 | -3 | i | -7 | -5 | ·
CCCOc1ccc(N2C(=O)CC(N3CCN(c4ccccc4OC)CC3)C2=O)cc1 (stereo not given) | 4 | -3 | -1 | -3 | i | 13 | -5 | 6
O=c1c2sccc2n(Cc2cc(=O)n3ccccc3n2)c(=O)n1-c1ccccc1 | -2 | -4 | 0 | -7 | i | · | 12 | -21
Cc1ccc(NC(=O)c2c(-c3c(F)cccc3Cl)noc2C)cc1F | -8 | 0 | -12 | -9 | i | 14 | -7 | 5
COc1ccccc1N1C(=O)C2CCC(c3ccccc3)CC2C1=O (stereo not given) | -9 | 5 | 3 | -4 | i | 4 | · | -6
CC[C@]12c3[nH]c4ccccc4c3CCN1C(=O)C(CC(=O)NCC13CC4CC(CC(C4)C1)C3)C[C@@H]2C(=O)N1CCN(C(=O)c2ccco2)CC1 (stereo not given in full) | · | -5 | -11 | · | · | 0 | · | 5
O=C(NCc1ccccc1F)c1ccc(S(=O)(=O)N2CCCCCC2)cc1 | · | 2 | -2 | · | · | 0 | -4 | ·
Cc1[nH]c2ccccc2c1SCc1nnc(SCc2ccccc2)n1C | -3 | 1 | 1 | 0 | i | -16 | 12 | 13
CCN(CC)C(=O)C1CCCN(Cc2ccccc2)C1 (stereo not given) | 7 | -1 | -2 | -8 | i | -10 | · | -1
Cc1nc(-c2ccc(S(=O)(=O)Nc3ccc(S(N)(=O)=O)cc3)cc2)co1 | 0 | 2 | -1 | 5 | i | -24 | 2 | -3
CC(=O)c1cc2c(cc1NC(=O)c1ccco1)OCCO2 | 5 | -1 | 6 | -8 | i | 1 | -6 | -16
COc1ccc(S(=O)(=O)N2CCOC2CNC(=O)C(=O)NCc2ccncc2)cc1OC (stereo not given) | 3 | -1 | 2 | 11 | i | -13 | -491 | 0
O=C(c1ccc2c(c1)OCO2)N1CCN(c2ccccc2)CC1 | 0 | 1 | 0 | -1 | i | -1 | · | -3
O=C(C1CC1)N(CCN(C(=O)C1CC1)c1ccccc1)c1ccccc1 | 0 | -7 | 2 | -12 | · | -11 | · | 3
O=C(CN1C(=O)C2CC=CCC2C1=O)Nc1nc(-c2ccc(F)cc2)cs1 (stereo not given) | · | -4 | -7 | · | · | -11 | · | 2
CC(C)COc1ccc(C(=O)Nc2sc3c(c2C(=O)O)CC(C)(C)OC3)cc1 | 4 | -15 | -8 | 3 | i | · | 34 | ·
COCCCn1c(=N)c(C(=O)NC2CCCCC2)cc2c(=O)n3ccccc3nc21 | -5 | -4 | 3 | -1 | i | -7 | · | -3
COc1cccc(/C=N/Nc2cc(Cl)nc(C)n2)c1O | -3 | -6 | 0 | 8 | i | · | -14 | 2
CC(=O)Nc1ccc(-c2nnc(SCC(=O)c3ccc4c(c3)Cc3ccccc3-4)n2C)cc1 | 6 | 3 | 1 | -17 | i | -23 | · | -11
Cc1cccnc1NC(=O)CCCNC(=O)c1ccc(Cl)cc1 | · | 1 | 7 | · | i | -10 | -19 | -5
CCNC(=O)NC(=O)COC(=O)CNC(=O)COc1ccccc1 | 1 | 0 | 3 | 7 | i | · | · | -11
N=C1C(c2ccccc2)=C(O)CN1c1cccc(S(=O)(=O)NCc2ccco2)c1 | 7 | 4 | -1 | -12 | i | · | 1 | 5
CCOc1ccc(C(C)=O)cc1COC(=O)C(C)N=C1NS(=O)(=O)c2ccccc21 (stereo not given) | -21 | -2 | -1 | -9 | i | -12 | 12 | -6
COc1cccc(N=c2oc3ccc(OC)cc3cc2-c2nc3ccccc3[nH]2)c1 | 11 | 1 | 1 | 18 | i | -7 | -412 | -33
CCOC(=O)c1cc(NC(=O)CSCCO)ccc1Cl | -3 | 1 | 2 | -5 | i | -12 | · | -3
CCCCN=C1CC(C)(C)CC(=O)/C1=C(/O)CCC | 4 | 1 | 4 | -9 | i | · | 5 | -16
O=C(CCc1ccc(S(=O)(=O)N2CCOCC2)cc1)N1CCc2ccccc2C1 | 19 | -4 | -3 | -4 | i | 1 | 10 | 5
CC(=O)Nc1ccc(S(=O)(=O)NCC2(N3CCOCC3)CCCCC2)cc1 | · | 1 | 1 | · | · | -18 | -2 | ·
CC(=O)Oc1ccc(N2C(=O)C3C4C=CC(CO)(O4)C3C2=O)cc1 (stereo not given) | -4 | 0 | 0 | 9 | i | -12 | · | 3
Cc1ccc(S(=O)(=O)NC(CC(C)C)C(=O)NCc2ccco2)cc1 (stereo not given) | -10 | 1 | 0 | -11 | i | 2 | -29 | 7
C=CCn1c(=O)c(C(=O)NCc2ccc3c(c2)OCO3)c(O)c2cc(OC)c(OC)cc21 | -9 | 3 | 2 | 14 | i | -4 | -7 | ·
C/C(=N\NC(=O)c1cc2c(s1)CCC(C)C2)c1cccnc1 (stereo not given) | -5 | 0 | 1 | -6 | i | · | -12 | 4
O=c1cc(-c2ccsc2)oc2ccc(-c3ccc4cc[nH]c4c3)cc12 | · | 7 | -6 | · | · | -47 | -31 | 20
CN(C(=O)c1ccccc1-c1ncc[nH]1)C1CCCN(Cc2ccccc2F)C1 (stereo not given) | -5 | -1 | 4 | -4 | i | -15 | 6 | 6
O=C1CC[C@H](OCc2ccccc2)CCN1[C@H](CSc1ccccc1)Cc1ccccc1 | -3 | -4 | -2 | -5 | i | -14 | -35 | 9
CNC1(C(N)=O)CCNCC1 | 11 | 1 | 5 | 2 | i | -11 | -8 | 1
N#CC1=C(N)SC(N)=C(C#N)C1C1CC=CCC1 (stereo not given) | 26 | -6 | 3 | 9 | i | -11 | · | -1
O=C(CSc1ccc2nnc(-c3ccncc3)n2n1)Nc1nccs1 | -1 | -3 | -3 | -4 | i | -15 | 17 | ·
Clc1cccc(Cl)c1Cn1cnc(=NCc2ccco2)c2[nH]cnc21 | 2 | -5 | -2 | 0 | i | -5 | 8 | -5
Cc1ccc(CN2CCNC(=O)C2CC(=O)N(C)C2CCCCC2)cc1 (stereo not given) | 3 | -6 | -3 | -2 | i | -3 | -19 | -12
CCn1ccnc1CN1CCN(CC(C)C)C(CCO)C1 (stereo not given) | -9 | 1 | 1 | -2 | i | · | -6 | -4
COCCCC1CCN(Cc2cn[nH]c2-c2cc(OC)c(OC)c(OC)c2)CC1 | -6 | 1 | 2 | -9 | i | -6 | -6 | -3
COC(=O)c1cc2c(-c3ccccc3)c(C)c3ccccn3c-2c1C(=O)OC | 120 | -19 | 5 | 126 | i | -5 | · | 22 | eIF4H inh retest=1;PABP FP inh retest=34
Cn1cccc1Cc1nnc(SCC(=O)Nc2nc3ccccc3s2)n1CCc1ccccc1 | 3 | 0 | 0 | -5 | · | -18 | · | -23
CN(C(=O)COC(=O)CNC(=O)c1ccccc1F)C1CCCCC1 | · | 0 | 0 | · | i | · | -1 | -1
O=C(CC(c1ccccc1)c1ccccc1)NCC1CCCO1 (stereo not given) | -18 | -6 | -2 | 4 | i | -1 | -8 | ·
NC(=O)c1ccccc1OCC(=O)N1CCc2ccccc2C1 | -5 | 0 | -2 | 0 | i | -18 | -5 | -16
Cc1ccc(S(=O)(=O)c2c(N)n(/N=C/c3ccco3)c3nc4ccccc4nc23)cc1 | 94* | -1 | 7 | 69* | · | 1 | -22 | 2
Cc1cc(NC(=O)CCC(=O)N(Cc2ccco2)C(C(=O)NC2CCCC2)c2ccccc2)no1 (stereo not given) | 1 | 0 | 3 | -1 | i | 12 | -18 | -9
COc1ccc(CCC(=O)OCC(=O)Nc2ccc(C)c(S(=O)(=O)N(C)C)c2)cc1 | -2 | 0 | 3 | 1 | i | · | -21 | -7
CCc1nc2c(OCc3ccc(F)cc3)cccn2c1N(C)C(=O)c1ccc(C)cc1 | · | 0 | -2 | · | · | -37 | 27 | ·
COC(CNC(=O)c1ccc2nc(-c3ccccc3)c(-c3ccccc3)nc2c1)OC | -6 | -1 | -1 | -2 | i | · | 1 | 4
Cc1cc([N+](=O)[O-])ccc1NCc1ccccc1[N+](=O)[O-] | 10 | 4 | -10 | 2 | i | -14 | 20 | 3
COc1ccccc1-n1nnnc1SCC(=O)Nc1cc(C)on1 | 1 | -2 | 2 | -11 | i | -11 | · | -9
C/C(=N/NC(=O)CNC(=O)c1ccncc1)c1ccc(Cl)cc1 | -1 | 3 | 2 | 7 | i | · | -10 | -19
CC(C)CC1Nc2ncnc(N3CCN(c4ccccc4)CC3)c2N(Cc2ccccc2)C1=O (stereo not given) | · | -13&-10 | -9&-16 | · | i | -18&-15 | 13 | 21
COc1cc(/C=N/NC(=O)C(=O)NCC2CCCO2)cc(Cl)c1O (stereo not given) | 4 | -5 | -3 | -5 | i | 2 | 7 | -7
O=C(c1ccc2c(c1)OCCO2)C1CCN(C(=O)c2ccc(F)c(F)c2)CC1 | -12 | -2 | -8 | -15 | i | -25 | 6 | -8
COc1ccccc1CNC(=O)CN(C)Cc1ccc(SC)cc1 | 3 | 1 | -1 | 4 | i | 4 | 5 | 0

Next section:
SMILES | PABP FP inh | MT1-MMP act inh | MT1-MMP act inh RFP | eIF4H inh | Rce1 inhib | Yeast UUG start | HIV Env fusion | CSC inhib | others
Cc1ccc(S(=O)(=O)N2[C@@H](c3ccc(C(C)C)cc3)C(C(=O)O)=C[C@H]2C(C)(C)C)cc1 | · | 0 | 2 | · | · | 12 | 2 | ·
COC(=O)c1ccc(Sc2ccc(C)cc2)c(N)c1 | 8 | 2 | 0 | -2 | i | -12 | · | 0
Cc1cc(N2CCN(S(=O)(=O)Cc3ccccc3)CC2)n2ncnc2n1 | -5 | 5 | 1 | 1 | i | -16 | 8 | -5
CCc1nnc(NC(=O)[C@@H](NC(=O)c2ccc(OC)cc2)C(C)C)s1 | -1 | 0 | 0 | -7 | i | · | 11 | 12
CN(C)C(=O)c1cn(N(C)c2ncc(C(F)(F)F)cc2Cl)c(=O)c2ccccc12 | 1 | 0 | 2 | -3 | i | 5 | · | -17
O=C(Nc1nc2c(F)cc(F)cc2s1)c1ccco1 | -13 | 0 | 0 | -5 | i | -17 | -129 | 9
Cc1ccc(-n2c(SCC(=O)Nc3cccc(S(=O)(=O)NC4=NCCCCC4)c3)nc3ccccc3c2=O)cc1 | 27 | -3 | -4 | 8 | i | · | 1 | -4

An excerpt, so the mix of outcomes need not match the whole.
